Source: PubChem BioAssay
GALR2 agonist: agonists of human galanin receptor 2 (GALR2); O43603; GALR2-expressing cells, agonist activation read-out; activation, %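 (tested at 5 µM)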; 0.48% of 140,000 active; AID 803;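 active means above mean plus 3 SD of all compounds, about 5% in these data, not always enough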;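 further: 0% = vehicle buffer wells and 100% = reference agonist at full effect; tested in CHO reporter cells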
Target sequence (O43603 whole entry, looked up): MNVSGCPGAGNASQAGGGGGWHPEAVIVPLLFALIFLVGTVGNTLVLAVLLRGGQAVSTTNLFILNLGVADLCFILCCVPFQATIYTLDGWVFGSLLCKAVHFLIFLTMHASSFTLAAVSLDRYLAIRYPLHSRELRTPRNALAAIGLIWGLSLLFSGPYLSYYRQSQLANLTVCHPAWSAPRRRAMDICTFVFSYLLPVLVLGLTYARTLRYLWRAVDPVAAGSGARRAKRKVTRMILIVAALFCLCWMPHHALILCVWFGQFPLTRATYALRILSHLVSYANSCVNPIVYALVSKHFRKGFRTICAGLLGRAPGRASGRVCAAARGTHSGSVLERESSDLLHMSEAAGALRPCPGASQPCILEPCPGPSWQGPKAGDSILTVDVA
PKD1 inh: PKD1 (human) kinase inhibition; Q15139; PKD1 kinase fluorescence polarization assay; inhibition, %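 (about 10 µM by stock and volumes)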; 0.056% of 200,000 active; AID 797;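 active means inhibition of 50% or more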;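 further: controls were vehicle for no effect and a reference inhibitor for full effect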
HSV augment: increases HSV replication in cells. HSV replication augmentation in cells, fold increase. maximum fold increase. 0.005% of 220,000 active. AID 1956;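 active means peak rise of 1.5-fold or more in the series; inconclusive means self-fluorescent or not available for retest; tested in PC3 cells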;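 further: first round at 10 µM; read as green reporter fluorescence; hits show the peak of a series up to 25 µM; 1 = signal of infected wells without compound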
INS promoter inh: TRM-6 insulin promoter activity inhibition; inhibition, % at 2 µM; AID 1273; 0.9% of 130,000 active; TRM-6 cells (human fetal islet line), insulin promoter-eGFP reporter, imaging; reporter expression induced with tamoxifen;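 active means inhibition above the mean plus 3 SD, with well images judged a real hit on visual review, cut at about 60% in these data, passing the limit was not always enough; inconclusive means inhibition over the cutoff but images rejected on review; inactive means inhibition not above the cutoff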
RGS16-Gao: regulators of human RGS16-Galphao interaction | O15492+P09471 | bead-based flow cytometry RGS16-Galphao binding, fluorescence; actives lie on both sides | binding response (% of control), % at 10 µM | 0.38% of 220,000 active;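 active means below 25% or above 175%, edge rows of some plates excepted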;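 further: Galphao activated by GDP with aluminum fluoride before binding; 100% = wells without compound and 0% = beads without RGS; some results beyond the cut were filed as inactive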
Target sequence (O15492 whole entry, looked up): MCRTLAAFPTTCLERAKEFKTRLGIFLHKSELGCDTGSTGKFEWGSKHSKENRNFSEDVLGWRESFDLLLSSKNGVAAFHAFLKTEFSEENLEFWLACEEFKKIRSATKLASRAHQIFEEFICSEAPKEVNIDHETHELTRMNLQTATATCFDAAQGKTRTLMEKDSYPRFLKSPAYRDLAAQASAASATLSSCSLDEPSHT
Target sequence (P09471 whole entry, looked up): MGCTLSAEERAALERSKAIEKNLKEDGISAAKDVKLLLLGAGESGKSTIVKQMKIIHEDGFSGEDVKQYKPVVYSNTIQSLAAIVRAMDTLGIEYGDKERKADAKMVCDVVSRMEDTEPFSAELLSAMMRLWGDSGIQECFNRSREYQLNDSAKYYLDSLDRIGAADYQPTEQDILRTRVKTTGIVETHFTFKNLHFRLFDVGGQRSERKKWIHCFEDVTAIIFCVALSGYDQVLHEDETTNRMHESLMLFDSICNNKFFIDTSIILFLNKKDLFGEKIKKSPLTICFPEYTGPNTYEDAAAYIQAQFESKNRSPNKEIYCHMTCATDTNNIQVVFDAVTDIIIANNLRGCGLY
INS promoter inh cell count: also measured in INS promoter inh; calls as there; normalized cell count, %; measured here: cell count, toxicity; reference of the scale not given here;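 cells exposed to compound for 48 h; stained nuclei by imaging scaled within each plate; lower means fewer cells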
HSV augment primary fold: second read-out of HSV augment, no call of its own (marks repeat the call); fold increase; compound at 10 µM; measured here: primary screen fold increase 10 uM; tested in PC3 cells;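 GFP signal in the first replicate; 1 = infected wells without compound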
An asterisk follows results filed as active; i = inactive; ? = inconclusive; / = not tested or not shown; [ ] = another dose, or the depositor's remark.

compound	GALR2 agonist	PKD1 inh	HSV augment	HSV augment primary fold	INS promoter inh	INS promoter inh cell count	RGS16-Gao
O=c1c(Cc2ccc(Cl)cc2Cl)c(O)ccn1CCCN1CCOCC1	/	11	i	1.1	5	104	105
COc1ccc(NC(=S)N2CCNC(=O)C2CC(=O)Nc2ccc(C)cc2)cc1 (centres undefined)	-1.2	-5	i	1	/	/	95
CCn1c(CNC(=O)COc2ccc(C(C)C)cc2)nnc1SCC(=O)Nc1ccccc1F	-1.8	-7	i	0.88	-18	117	101
COc1cccc(NC(=O)CSc2nnc(C)s2)c1	-4.4	-7	i	0.93	36	76	99
Nc1nnc(SCc2ccc(F)cc2)s1	-1.6	4	i	0.93	-10	112	92
CCC(=O)c1ccc(OCC(=O)N2CCCC2)c(OC)c1	/	5	i	0.95	38	70	60
C/C=C/Cn1c(SCc2ccc(C)cc2)nc2c1c(=O)[nH]c(=O)n2C	-0.6	6	i	0.81	29	106	96
O=c1ccc(Cl)cn1Cc1ccccc1F	-2.2	3	i	0.83	-56	100	163
CCOC(=O)c1c(NC(=O)c2cc(CC(C)C)on2)sc(C(C)=O)c1C	-0.3	13	i	0.69	/	/	112
Cn1c(=O)c2c(nc(CN3CCN(c4cccc(Cl)c4)CC3)n2CCc2ccccc2)n(C)c1=O	-0.3	-11	i	0.97	-22	105	/
Cc1ccc(C(=O)NC2CCN(S(=O)(=O)c3ccccc3)CC2)cc1	/	2	i	0.89	/	/	105
Cc1c(Br)c([N+](=O)[O-])nn1CCCC(=O)N1CCN(c2ccccc2)CC1	-0.1	9	i	1	-22	79	109
Cc1cc(C)c2[nH]c(O)c(N=NC3=NC(=O)CS3)c2c1	/	/	i	0.87	/	/	270*[activator]
CCOc1ccccc1NC(=O)c1ccccc1-c1nc(-c2ccccc2OC)no1	-0.7	-21	i	0.84	-225	71	90
CCOC(=O)NC(=O)CSc1cc(C)c2cc(C)cc(C)c2n1	/	-4	i	0.95	-55	155	127
COCCCNc1nc2c(-c3ccc(Cl)cc3)nnn2c2ccccc12	-0.3	6	/	/	-80	100	106
COc1ccc(S(=O)(=O)N2CCN(C(=S)NC3CCCCC3)CC2)cc1	/	-3	i	0.91	/	/	100
CN1CCC(N(C)C(=O)COc2ccccc2-c2ccccc2)CC1	-2.1	-4	i	0.97	/	/	105
CC(C)(C)N1C(=O)c2ccc(C(=O)NCc3ccco3)cc2C1=O	-2.4	4	i	0.92	-207	49	91
CCCN1Cc2cccc(C(=O)N3CCN(c4ccc(OC)cc4)CC3)c2C1=O	/	0	i	0.9	-67	139	81
COc1ccc2c(c1)C(C)=CC(C)(C)N2S(=O)(=O)c1ccc(C)cc1	/	0	i	0.75	-200	29	105
CCC1=C(OC(=O)N(CC)CC)N2C(=O)OC(=NCc3ccccc3)[C@]2(C)[C@H]2C1=CC[C@H]1C(=O)N(CC)C(=O)[C@H]12	/	/	i	0.95	/	/	104
COc1cc2c(cc1OC)C(C)N(C(=O)c1cccc([N+](=O)[O-])c1)CC2 (centres undefined)	/	-3	i	0.9	50	98	112
O=C(CSc1nc2ccccc2n1CC(=O)N1CCCCC1)N1CCCCC1	/	/	i	1	/	/	103
CC1Cc2ccccc2N1C(=O)COC(=O)Cn1cnc2ccccc2c1=O (centres undefined)	-1.1	15	i	1	0	117	112
O=C1OCC(CO)(CO)N=C1NNc1ccccc1[N+](=O)[O-]	/	/	i	0.94	/	/	98
CN(C)c1nc(N)nc(CSc2nnnn2-c2cccc3ccccc23)n1	-0.3	6	i	0.94	-16	67	99
COc1cc(/C=C/C(=O)O)cc(S(=O)(=O)NCc2ccco2)c1OC	/	4	i	1.1	/	/	103
COc1ccc(CCNC(=O)c2c([S-])n(-c3ccc(C)cc3)c3cccc[n+]23)cc1	/	/	i	0.85	/	/	100
NCCc1nnc(SCc2ccc(F)cc2)o1	-2.4	-3	i	0.97	-3	130	88
COc1ccc(C(O)CNc2ccc(C)cc2)cc1 (centres undefined)	-1.6	-3	/	/	-97	119	98
O=C(NC(Cc1c[nH]c2ccccc12)C(=O)O)/C(=C/c1ccc(F)cc1)NC(=O)c1ccccc1 (centres undefined)	/	/	i	0.81	/	/	94
S=c1[nH]cc(Cc2ccccc2)s1	0.2	11	i	0.95	/	/	99
O=C(O)CC1(CC(=O)Nc2ccc3sccc3c2)CCCCC1	/	/	i	1.1	/	/	104
Cc1ccc(NC(=O)CN2C(=O)/C(=C\c3cccs3)SC2=S)cc1	-0.4	-8	i	0.91	4	123	100
O=C(CNC(=O)c1ccc(S(=O)(=O)N2CCCC2)cc1)N/N=C/c1ccccc1Cl	-0.7	7	i	0.94	/	/	139
COc1ccc(C(=O)C(OC(=O)c2ccc(C)c(NC(C)=O)c2)c2ccccc2)cc1 (centres undefined)	-0.6	-4	i	0.76	-14	113	94
COC(=O)/C(=C/c1ccco1)NC(=O)c1ccco1	0.3	-16	i	1	11	59	28
CS(=O)(=O)N(Cc1ccccc1Cl)c1ccc(C(=O)NCc2cccnc2)cc1	/	-1	i	0.79	/	/	100
COc1ccc(C2c3c(ccc4ccccc34)Oc3ncn4nc(CO/N=C/c5ccccc5)nc4c32)cc1 (centres undefined)	-0.4	1	i	0.73	-7	143	101
CCc1cccc(CC)c1-n1c(-c2cccnc2)n[nH]c1=S	/	3	?	/	24	101	95
C/C(=N\NC(=O)CNc1cccc(C)c1)c1ccc(Br)s1	-0.9	-9	i	0.91	17	124	98
CCc1nnc(NC(=O)CCN2C(=O)c3ccccc3S2(=O)=O)s1	-0.7	-1	i	0.96	-12	159	104
Cc1cc(NC(=O)Cc2cn3ccsc3n2)n(-c2ccccc2)n1	-0.4	1	i	0.98	57	76	103
CCCCNC(=O)NC1CCCC1	0.1	-6	i	0.98	-10	107	102
O=c1c(Cl)c(N2CCOCC2)cnn1-c1ncc(C(F)(F)F)cc1Cl	/	4	i	0.89	/	/	95
CCCN(CCC)C(=O)c1cc(-c2ccc3c(c2)OCO3)nc2ccccc12	0.2	-2	i	0.99	8	106	81
O=C1c2cccc3cccc(c23)C(=O)N1CC1CCCO1 (centres undefined)	/	9	i	1.1	/	/	97
CCN(CC)C(=O)C1CCCN(Cc2ccc3c(c2)OCO3)C1 (centres undefined)	-1.9	-9	i	1	-7	115	104
Cc1cccc(Cn2ccc(NC(=O)c3ccc4c(c3)OCO4)n2)c1	/	-2	i	1	-7	101	105
COc1ccc([N+](=O)[O-])cc1NC(=O)CSCc1cc(C)cc(C)c1	-0.4	-4	i	0.89	27	149	98
Cc1ccc2nc(-c3cccnc3SCC(=O)N3c4ccccc4CC3C)[nH]c2c1 (centres undefined)	-0.8	2	i	0.8	6	93	95
O=C1NCCCC1C(=O)N1CCCCC1 (centres undefined)	/	-10	i	0.95	29	127	106
Cc1ccc(Nc2nc(N)nc(CN3CCN(Cc4ccccc4)CC3)n2)cc1Cl	/	/	i	0.88	/	/	101
Cc1cc(C)c2c(n1)nn1c(-n3ccnc3)cc(C)nc21	-1.7	0	i	0.87	/	/	99
O=C(O)c1cc(S(=O)(=O)Nc2ccc3oc(=O)sc3c2)ccc1O	-2.1	-9	i	0.81	5	141	103
COc1ccc(-c2nn(-c3ccccc3)cc2/C=C2/SC(=S)N(Cc3ccco3)C2=O)c(C)c1	-2.0	3	i	0.89	-90	133	95
O=[N+]([O-])c1cccc(-c2ccc(C(=S)N3CCOCC3)o2)c1	/	-5	i	0.92	/	/	93
CCOC(=O)c1c(NC(=O)C[n+]2ccc(N(C)C)cc2)sc(C)c1C	/	-3	i	0.84	19	98	103
Brc1cccc(OCCOCCn2ccnc2)c1	0.3	-9	i	1	-6	60	102

An excerpt from above in order of the HSV augment primary fold value, largest number first:
compound,GALR2 agonist,PKD1 inh,HSV augment,HSV augment primary fold,RGS16-Gao
CCN(CC)C(=O)C1CCCN(Cc2ccc3c(c2)OCO3)C1 (centres undefined),-1.9,-9,i,1,104
S=c1[nH]cc(Cc2ccccc2)s1,0.2,11,i,0.95,99
Nc1nnc(SCc2ccc(F)cc2)s1,-1.6,4,i,0.93,92
COc1ccc(S(=O)(=O)N2CCN(C(=S)NC3CCCCC3)CC2)cc1,/,-3,i,0.91,100
CCn1c(CNC(=O)COc2ccc(C(C)C)cc2)nnc1SCC(=O)Nc1ccccc1F,-1.8,-7,i,0.88,101
O=C(O)c1cc(S(=O)(=O)Nc2ccc3oc(=O)sc3c2)ccc1O,-2.1,-9,i,0.81,103

The list goes on:
compound	GALR2 agonist	PKD1 inh	HSV augment	HSV augment primary fold	INS promoter inh	INS promoter inh cell count	RGS16-Gao
CCOC(=O)N1CCC(N(C(=O)Nc2ccccc2)C(C)CC)CC1 (centres undefined)	-1.4	-12	i	0.85	15	87	100
CCOCCCNC(=O)C(c1ccc(C)cc1)N(Cc1cccs1)C(=O)c1ccccn1 (centres undefined)	/	-3	i	0.77	/	/	99
Cc1onc(-c2c(F)cccc2Cl)c1C(=O)NC(=S)NC1CCSC1=O (centres undefined)	-0.3	-9	i	1.1	-38	111	111
CCN1CCCC1CNC(=O)c1ccc(N2CCOCC2)c(NS(=O)(=O)c2ccc(OC)cc2)c1 (centres undefined)	/	7	i	0.89	-43	101	106
COc1cnn(Cc2ccccc2)c(=O)c1SCc1ccccc1	-1.1	1	/	/	-17	88	102
CCOC(=O)c1nnn(-c2nonc2OC)c1-c1ccccc1	-1.0	-14	i	0.87	3	129	103
Cc1cc(C=O)c(C)n1-c1ccc(N2CCCC2)c([N+](=O)[O-])c1	-1.6	-3	i	0.94	/	/	106
COc1ccc(C(=O)n2nc(-c3ccco3)nc2N)cc1	-1.3	-3	i	0.99	16	152	109
CC1CCCCN1C(=O)CSc1nc(N)cc(=O)[nH]1 (centres undefined)	-1.6	-2	i	1.1	9	122	108
CC(C)Oc1ccc(CNCCC2(C(C)C)CCOC(C)(C)C2)cc1 (centres undefined)	0.0	1	i	0.78	-36	97	104
COc1ccc(OCCN2C(=O)c3ccccc3C2=O)cc1	/	5	i	1	-108	51	103
CCCc1[nH][nH]c(=O)c1C(c1cccc(Cl)c1)C(C#N)C#N (centres undefined)	-1.4	-4	i	0.94	-3	122	96
Cn1/c(=N\NC(=O)C2CCCCC2)sc2ccccc21	/	5	i	1.1	/	/	99
CS(=O)(=O)N(CC(=O)Nc1ccc(S(=O)(=O)N2CCOCC2)cc1)c1ccccc1Br	/	3	i	0.9	45	128	103
O=C(NNS(=O)(=O)c1ccc2ccccc2c1)c1cccs1	-1.1	-1	i	0.95	48	150	95
O=S(=O)(Nc1cnc2ccccc2c1)N1CCCCCC1	0.5	-6	i	0.82	20	94	100
COc1ccccc1-c1nc(N)n[nH]1	/	-7	i	0.91	/	/	108
COc1cc(CNc2ncn[nH]2)cc(Br)c1OC	-4.1	4	i	0.88	-38	112	101
CCCc1nc2oc3ccccc3c(=O)c2c(=O)n1-c1ccc(C)cc1	/	/	i	1	/	/	97
Cc1cccc(/C=C2\CCC(C3CCCC3)C2=O)c1 (centres undefined)	-0.4	8	i	1	8	116	102

Some of the entries so far, with each value named.
> CCOC(=O)N1CCC(N(C(=O)Nc2ccccc2)C(C)CC)CC1 (centres undefined)
  GALR2 agonist = -1.4
  PKD1 inh = -12
  HSV augment = i
  HSV augment primary fold = 0.85
  INS promoter inh = 15
  INS promoter inh cell count = 87
  RGS16-Gao = 100

> CCOCCCNC(=O)C(c1ccc(C)cc1)N(Cc1cccs1)C(=O)c1ccccn1 (centres undefined)
  GALR2 agonist = /
  PKD1 inh = -3
  HSV augment = i
  HSV augment primary fold = 0.77
  INS promoter inh = /
  INS promoter inh cell count = /
  RGS16-Gao = 99

Later entries:
compound	GALR2 agonist	PKD1 inh	HSV augment	HSV augment primary fold	INS promoter inh	INS promoter inh cell count	RGS16-Gao
CCn1cc(C(=O)NCc2ccco2)c2cc(OC)c(OC)cc2c1=O	1.7	-7	i	0.85	18	115	98
CNC(=S)N1CCN(c2c(F)cc3c(=O)c(C(=O)O)cn(C4CC4)c3c2OC)CC1C (centres undefined)	0.1	-5	i	0.93	-17	114	102
Cn1nc(C(F)(F)F)c(C#N)c1N1CCN(c2ccccn2)CC1	/	-5	i	1	/	/	100
COc1ccc(CC2(CO)CCN(Cc3cccnc3)CC2)cc1	/	8	i	1.1	8	54	102
COc1cccc(/C=N/NC(=O)CSc2cccc3cccnc23)c1	/	/	i	1.1	/	/	99
O=C(O)c1cc(N2C(=O)C3C4C=CC(C4)C3C2=O)ccc1NCc1cccnc1 (centres undefined)	-1.8	0	i	0.98	-4	126	104
CCOC(=O)C1CCN(C(=O)N2CCOCC2)CC1	-0.7	-9	i	1	-11	145	98
Cc1nn(-c2ccccc2)c(C)c1C(=O)Nc1ccc(N2CCOCC2)cc1	/	1	i	1	/	/	101
